Ecoli rRNA inh = inhibitors of bacterial rRNA selective over humanized ribosomes | E. coli WT GFP vs humanized-ribosome RFP mutants, fluorescence, 24 h; hits give low values; DMSO median 0, no signal -100 | GFP signal change (wild-type ribosome), % (no concentration beside the values) | hit rate 1.6% among 350,000;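 active = significant combined selectivity score with lowered wild-type GFP, culture density cut under 30%, mutant RFP and density less affected; inactive = any of these conditions unmet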; note: one replicate is shown; some compounds called inactive have numbers as strong as hits
B2AR ag = agonists of human beta-2 adrenergic receptor inducing internalization; response, % (concentration not given with the values); AID 504454; hit rate 0.43% among 340,000; P07550; Am2.2-beta2AR cells, FAP receptor internalization, flow cytometry; reference of the scale not given here;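 active = response above a set limit, near 3 SD of response in nonfluorescent compounds, cut at about 42% in these data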;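 note: stock transfer was 100 nL into about 11 µL; a reference agonist was the positive control; negative values mostly stem from fluorescent compounds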
ALR inh = blocks human ALR sulfhydryl oxidase activity | purified ALR, DTT oxidation, H2O2 HRP-luminol luminescence | AID 485317 | inhibition, % (concentration not given with the values) | hit rate 3.8% among 290,000;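 active = mean and each replicate at 75% or more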;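 note: stock transfer was 7.5 nL into about 7.5 µL; 0% = neutral wells and 100% = wells with inactivated enzyme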
Ecoli growth = blocks Escherichia coli growth; hit rate 0.21% among 330,000; OD600 absorbance (no concentration beside the values); OD600, 23 h; hits give low values;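 active = OD600 absorbance below the run mean of sample wells minus 3.6 SD, in any replicate, cut at about 0.56 in these data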;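 note: stock transfer was 300 nL into about 60 µL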
HNF4A DNA FP = change in binding of human HNF4 alpha to DNA | AID 1224865 | activity change, % at 10 µM | HNF4a-FITC DNA binding, fluorescence polarization, 1 h | hit rate 0.3% among 360,000; in the data active = activity change above about 30%, passing the limit was not always enough;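 note: controls were the assay level and a saturating level of protein; the project sought stronger binding though the title names inhibitors; some compounds called inactive have numbers as strong as hits; positive values seem to mean higher polarization but the record does not say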
Target sequence (P41235 whole entry, looked up): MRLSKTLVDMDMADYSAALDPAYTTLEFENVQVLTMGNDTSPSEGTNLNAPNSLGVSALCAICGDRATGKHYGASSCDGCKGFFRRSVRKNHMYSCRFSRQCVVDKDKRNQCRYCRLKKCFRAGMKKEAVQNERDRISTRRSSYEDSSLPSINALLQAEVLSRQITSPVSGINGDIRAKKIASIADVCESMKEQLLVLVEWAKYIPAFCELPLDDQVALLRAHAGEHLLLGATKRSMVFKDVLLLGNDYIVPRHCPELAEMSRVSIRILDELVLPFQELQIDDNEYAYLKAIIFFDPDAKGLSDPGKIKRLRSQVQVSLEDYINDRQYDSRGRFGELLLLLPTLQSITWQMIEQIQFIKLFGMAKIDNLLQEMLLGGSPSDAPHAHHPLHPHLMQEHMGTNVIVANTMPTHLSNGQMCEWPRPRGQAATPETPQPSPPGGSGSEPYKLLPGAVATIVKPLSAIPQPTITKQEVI
UCH37 inh = blocks the human deubiquitinase UCH37. inhibition, % (concentration not given with the values). hit rate 0.33% among 330,000. Q9Y5K5. purified proteasome/UCH37, Ub-AMC cleavage fluorescence;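 active = mean of two replicates above 20%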;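 note: 0% = compound-free wells with enzyme and 100% = wells lacking proteasome; stock transfer was 100 nL into about 20 µL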
Target sequence (Q9Y5K5 whole entry, looked up): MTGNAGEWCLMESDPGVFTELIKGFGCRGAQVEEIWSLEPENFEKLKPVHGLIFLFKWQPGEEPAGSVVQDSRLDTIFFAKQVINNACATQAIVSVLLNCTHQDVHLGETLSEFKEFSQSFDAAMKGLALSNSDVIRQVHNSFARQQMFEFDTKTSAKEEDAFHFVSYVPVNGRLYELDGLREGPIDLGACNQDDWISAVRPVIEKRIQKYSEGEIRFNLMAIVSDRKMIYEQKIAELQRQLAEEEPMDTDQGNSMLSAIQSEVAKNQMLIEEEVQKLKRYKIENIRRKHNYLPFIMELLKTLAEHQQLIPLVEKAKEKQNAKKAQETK
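Material: Human UCH37 enzyme supplied as purified proteasome complex | Schedule: 30 min compound-proteasome preincubation then 25 min substrate reaction, room temperature | Detection: AMC fluorescence from Ub-AMC cleavage, excitation 355 nm, emission 460 nm | Benchmarks: Wells without proteasome as full block, compound-free enzyme plus substrate as uninhibited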
FGF22 binding = shifts melting point of recombinant human FGF22 | Q9HCT0 | recombinant FGF22 thermal shift, SYPRO orange fluorescence; percent of sucrose octasulfate shift, DMSO zero | calls only at 9.99 µM | hit rate 1.5% among 340,000;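 active = melting point raised past a set limit in the mean and every replicate; three in four hits are not shown here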
Target sequence (Q9HCT0 whole entry, looked up): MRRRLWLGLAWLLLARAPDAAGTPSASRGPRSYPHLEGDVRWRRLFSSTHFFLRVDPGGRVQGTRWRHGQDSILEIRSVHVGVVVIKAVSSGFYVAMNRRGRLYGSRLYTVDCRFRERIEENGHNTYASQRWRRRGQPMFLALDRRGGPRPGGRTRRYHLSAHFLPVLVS
Ecoli rRNA inh OD600 = also measured in Ecoli rRNA inh; calls as there; OD600 change, %; measured here: OD600 growth;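 optical density of the mix in the first replicate; 0 = DMSO median and -100 = no signal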
Ecoli rRNA inh RFP = further read-out of Ecoli rRNA inh, marked with its call; RFP signal change, %; measured here: RFP humanized mutant strains;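 first replicate; 0 = DMSO median and -100 = no signal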
* = called active by the depositor; i = inactive; nt = not tested or not shown; + = active, no number. A portion of the library; count on the stated rates, not on these rows.

SMILES	Ecoli rRNA inh	Ecoli rRNA inh OD600	Ecoli rRNA inh RFP	B2AR ag	ALR inh	Ecoli growth	HNF4A DNA FP	UCH37 inh	FGF22 binding
CC(=O)C1=C(O)C(=O)N(CCC(=O)O)C1c1ccc(Cl)cc1Cl (stereo not drawn)	9	1	0.2	1	nt	0.69	1.9	7.5	nt
CC(=O)c1ccc(OCc2cc(C(=O)NCCN3CCCC(O)C3)no2)cc1 (stereo not drawn)	3	4	0.0	-6	-1	0.71	-2.5	1.6	i
COc1ccc2nc(SCC(=O)NN)cc(C)c2c1	nt	nt	nt	5	-1	0.7	-2.9	2.0	nt
COc1ccc(C(=O)Nc2c(Cl)cc(Cl)cc2C(=O)N2CCOCC2)cc1	5	0	0.3	28	-5	0.72	0.9	2.4	i
Cc1ccc(C)c(NC(=O)CN(C)C(=O)c2cc3c(s2)CCCCC3)c1	3	8	-1.5	8	-2	0.67	0.2	3.1	i
CCN(CC)CCn1c2c(c(SCC(=O)Nc3nccs3)nc1=O)CCCC2	13	17	0.8	-5	98*	0.67	2.1	1.3	i
CC(=O)Nc1cccc(NC(=O)C(=O)c2cn(CC(=O)N3CCCC3)c3ccccc23)c1	-9	-4	5.9	nt	nt	nt	1.1	nt	i
CCOC(=O)c1ccc2c(c1)nc(SCC(=O)NC(C)C)n2CC	nt	nt	nt	3	-7	0.68	0.3	-0.2	nt
COc1ccc(-c2csc(NC(=O)C3=COCCO3)n2)cc1OC	-24	-24	-5.7	0	nt	0.62	-3.8	4.7	i
CC[C@@H]1CCC[C@@H](O)[C@@H](C)C(=O)O[C@H](C)[C@@H](C)C/C=C(C)/C(OC)=C\C(=O)N(C)C([C@@H](C)CC)C(=O)N(C)[C@@H](C(C)C)C(=O)N(C)[C@@H](COC)C(=O)N2CCC[C@H]2C(=O)N(C)[C@@H](C(C)C)C(=O)N2CCC[C@H]2C(=O)O1 (stereo partly drawn)	9	1	5.1	nt	nt	nt	-2.6	nt	i
COc1cccc(C(=O)N(C)CC(=O)Nc2ccc(F)c(F)c2F)c1	2	12	-0.9	1	6	0.64	0.4	2.3	i
O=C(c1ccccc1Cl)N1CCC(c2nc3c(nnn3Cc3ccco3)c(=O)[nH]2)CC1	-6	-23	-1.4	11	3	0.74	-1.6	8.8	i
COc1ccc(F)cc1-c1cc(NC=O)c2ncc(-c3cccc(C(F)(F)F)c3)n2c1	3	6	21	nt	nt	nt	1.0	nt	i
CCCc1cc(=O)n2[nH]c(-c3ccco3)nc2n1	7	6	-1.7	6	21	0.71	-4.0	5.1	i
Cc1cc(C(=O)NNC(=O)c2ccc(C)s2)c(C)o1	0	15	-3.0	-1	-2	0.69	2.5	1.8	i
Cc1ccc(CNC(=O)Nc2ccccc2)c(C)c1	3	11	-3.2	-4	nt	0.66	-1.2	0.7	i
Cc1ccc2c(c1)N(CC(=O)N1CCN(c3nc4ccccc4s3)CC1)C(=O)C(C)O2 (stereo not drawn)	nt	nt	nt	-11	0	0.68	-2.7	4.6	nt
CCOC(=O)c1ccc2c(c1)N(CC)C(=O)c1ccccc1S2	nt	nt	nt	-3	3	0.63	-3.1	0.4	nt
Cc1c(NC(=S)N/N=C/c2ccc(O)cc2)c(=O)n(-c2ccccc2)n1C	nt	nt	nt	-4	99*	nt	2.1	nt	nt
C=CCN1C(=O)/C(=C2/Sc3ccccc3N2C)SC1=Nc1c(C)n[nH]c1C	nt	nt	nt	-2	66	nt	0.5	0.7	nt
CCOC(=O)C(=O)N1CCN(c2nc(-c3ccc(Cl)cc3)cs2)CC1	-30	-26	-1.8	24	3	0.71	-1.2	2.8	i
CN1N=C(C(=O)N2CCc3c([nH]c4ccccc34)C2c2ccccc2Cl)CCC1=O (stereo not drawn)	nt	nt	nt	1	30	0.73	2.1	-2.0	i
CN1CCN(CCC(=O)Nc2ccc3c(c2)OCO3)CC1	nt	nt	nt	-2	-11	0.74	-1.8	-1.1	nt
COc1cc(NC(=O)c2ccc(Cl)cc2)c(OC)cc1Cl	nt	nt	nt	2	-6	0.67	1.2	-24	nt
COCCCNCCCCOc1ccc(OCc2ccccc2)cc1	1	-1	1.4	2	2	0.65	3.8	4.4	i
CN(CC(=O)Nc1ccccc1Br)C(=O)CNC(=O)c1cccs1	10	15	-0.7	-1	-4	0.68	3.9	-0.7	i
O=C1CCCCCN1CP(=O)(O)CN1CCCCCC1=O	26	11	3.3	13	-6	0.69	0.3	4.6	i
Cc1c(C)c2c(OCC(=O)N[C@@H](C(=O)O)c3ccccc3)cc3c(c2oc1=O)CCC(C)(C)O3	nt	nt	nt	-20	nt	0.73	3.0	i	i
Cn1c(SCC(=O)NC2CC2)nnc1C1CC1	8	10	0.3	-3	-2	0.72	2.4	-1.3	i
Cc1ccc(S(=O)(=O)c2nc(-c3ccco3)oc2SCC(N)=O)cc1	1	8	1.3	-9	0	0.67	4.4	1.8	i
CCCCCn1c(NC2CCCCC2)nc2c1c(=O)[nH]c(=O)n2C	4	8	-0.2	1	30	0.69	8.7	3.6	i
Cc1cc(Br)cc2c1NC(=O)C2(c1c(C)n(C)n(-c2ccccc2)c1=O)c1c(C)n(C)n(-c2ccccc2)c1=O	nt	nt	nt	3	2	0.73	-1.4	1.0	nt
C(=C\c1nnc2c3ccccc3ncn12)/c1ccccc1	nt	nt	nt	-7	nt	0.71	-0.5	-32	i
Cn1c(=O)n(C)c2cc(CNC(=O)[C@H]3O[C@@H](n4ccc(=O)[nH]c4=O)[C@H](O)[C@@H]3O)ccc21	-2	7	0.2	nt	nt	nt	2.8	nt	i
COCCn1nnnc1C(C(C)C)N1CCC(Cc2ccccc2)CC1 (stereo not drawn)	nt	nt	nt	-1	-2	0.69	-0.2	-1.0	nt
Cc1cc(C)cc(Oc2ccc(-c3nnc(-c4ccccc4)o3)cc2[N+](=O)[O-])c1	nt	nt	nt	0	-2	0.7	-5.8	2.9	i
COc1ccc(NC(=O)Nc2cnccn2)cc1	2	8	-0.9	1	nt	0.66	2.3	3.7	i
COc1ccc(CCNC(=O)C2CCCN2S(=O)(=O)c2ccc(F)cc2)cc1OC (stereo not drawn)	4	2	1.8	0	-3	0.67	-4.2	3.1	i
CCc1cccc(NC(=O)C(NC(=O)C2CCCCC2)C(C)C)c1 (stereo not drawn)	14	0	-0.5	-6	-9	0.68	0.4	0.9	i
CC1=C(C(=O)c2ccccc2)C(c2cccc([N+](=O)[O-])c2)NC(=S)N1 (stereo not drawn)	-5	-3	1.6	4	nt	0.72	-2.1	2.5	i

Pulled by structure from the list above (3):
SMILES	Ecoli rRNA inh	Ecoli rRNA inh OD600	Ecoli rRNA inh RFP	B2AR ag	ALR inh	Ecoli growth	HNF4A DNA FP	UCH37 inh	FGF22 binding
Cc1ccc(S(=O)(=O)c2nc(-c3ccco3)oc2SCC(N)=O)cc1	1	8	1.3	-9	0	0.67	4.4	1.8	i
O=C1CCCCCN1CP(=O)(O)CN1CCCCCC1=O	26	11	3.3	13	-6	0.69	0.3	4.6	i
COc1cc(NC(=O)c2ccc(Cl)cc2)c(OC)cc1Cl	nt	nt	nt	2	-6	0.67	1.2	-24	nt

Later entries.
SMILES	Ecoli rRNA inh	Ecoli rRNA inh OD600	Ecoli rRNA inh RFP	B2AR ag	ALR inh	Ecoli growth	HNF4A DNA FP	UCH37 inh	FGF22 binding
CCC1CCCCN1C(=S)NC(=O)c1cc(S(=O)(=O)N2CCOCC2)ccc1C (stereo not drawn)	-2	-5	10.0	5	-1	0.69	-5.8	3.5	i
CCc1nc2ccc(C(=O)NC3CCN(Cc4ccccc4)CC3)cn2c1N(C)CCN1CCOCC1	8	16	2.2	nt	nt	nt	-4.1	nt	i
CCCCc1ccc(NC(=O)c2cnccn2)cc1	-17	-16	-4.5	13	-4	0.69	0.6	4.5	i
C=CCC(NCc1ccccc1)c1ccc(OC)cc1 (stereo not drawn)	3	5	-0.2	7	3	nt	-0.1	nt	i
O=C(CCCc1c[nH]c2ccccc12)N1CCN(S(=O)(=O)c2cccs2)CC1	nt	nt	nt	5	-15	0.66	4.4	2.5	nt
O=C(NC1(C(F)(F)F)C(=O)Nc2c1c(=O)[nH]c(=O)n2Cc1ccco1)C1CC1 (stereo not drawn)	nt	nt	nt	13	5	0.75	0.6	4.8	nt
CC1=NN(c2ccccc2)C(=O)C1N=Nc1ccccc1 (stereo not drawn)	-1	6	-1.9	-7	-6	0.71	1.4	3.9	i
COc1ccc(CN2CCN(C3CCC3)CC2CCO)c(C)c1C (stereo not drawn)	10	2	1.0	-11	-1	0.69	0.7	-1.0	i
CCc1ccc(NC(=O)CSc2n[nH]c(=O)n2C2CC2)cc1	-3	-2	-0.8	4	nt	0.63	-0.4	1.2	i
CCN1CCN(c2nc(Nc3cccc(C)c3)nc(N)c2[N+](=O)[O-])CC1	nt	nt	nt	-6	6	0.65	-0.4	7.5	nt
CC/C(O)=C(/C#N)c1nnc2n1CCCCC2	nt	nt	nt	8	0	0.66	-0.1	0.5	nt
CCOC(=O)N1CCN(C(=S)NC(=O)c2ccnn2C)CC1	nt	nt	nt	5	5	0.65	0.7	-0.3	nt
CCOc1ccc(NS(=O)(=O)c2ccc(C(=O)NCc3ccncc3)cc2)cc1	-2	7	7.0	0	-5	0.69	-2.2	1.5	i
COC(=O)c1ccccc1NC(=O)CN(C)Cc1ccccc1	-35	-54	-8.8	-1	-11	0.64	-1.9	2.1	nt
CC1=CC(C)(C)N(S(=O)(=O)c2ccc(F)cc2)c2ccccc21	-30	-45	-6.2	-2	-8	0.74	-0.5	2.0	i
O=C(CSc1nnc(-c2ccccc2F)o1)NC1CCCCC1	6	-3	4.1	-7	nt	0.69	1.1	2.6	i
COc1ccccc1NC(=O)COC(=O)CNC(=O)C1CCCCC1	3	6	-2.0	-4	-1	0.68	-2.5	-0.3	i
COc1cc(CNC23CC4CC(CC(C4)C2)C3)ccc1OCc1ccccc1	nt	nt	nt	-6	-29	0.68	2.4	3.2	nt
c1ccc2c(c1)NCCS2	1	-2	-2.5	11	3	0.71	-0.1	-2.5	i
CNC(=S)Nc1cc(C)ccc1OC(F)F	15	2	-3.2	-2	nt	0.72	3.6	4.7	i
O=C(CC1C(=O)NCCN1Cc1c(F)cccc1Cl)NC1CCCC1 (stereo not drawn)	10	14	2.3	-1	-6	0.69	0.8	3.2	i
CC1CN(C(=O)C(C)Sc2nc3ccccc3s2)CC(C)O1 (stereo not drawn)	nt	nt	nt	-1	99*	0.72	1.0	2.6	nt
COc1ccc(CNC(=O)/C=C/c2ccco2)cc1OC	-4	-16	4.3	-3	-6	0.68	-0.8	5.4	i
O=C(Nc1nnc(C2CCCCC2)s1)C1CC(=O)N(c2ccccc2)C1 (stereo not drawn)	2	8	0.7	-5	-2	0.7	-1.2	5.7	i
COc1ccccc1NS(=O)(=O)c1cc(C(=O)Nc2ccc(S(=O)(=O)Nc3onc(C)c3C)cc2)ccc1C	-21*	-13*	1.0*	-7	nt	0.7	5.4	4.5	+
CNC(=O)c1cc(C(=O)c2ccc(Cl)cc2)c[nH]1	8	2	-5.0	7	nt	0.66	2.2	3.3	i
CCC(=O)NC(=S)Nc1cccc(-c2nc3ncccc3o2)c1	nt	nt	nt	-28	9	0.69	0.6	3.3	nt
O=C(COC(=O)CCC(=O)c1cccs1)Nc1cccc(S(=O)(=O)N2CCOCC2)c1	nt	nt	nt	-5	11	0.7	-1.1	-0.3	nt
CCOc1ccc(CCNC(=O)c2nnn(CC(=O)Nc3ccc(OC)c(OC)c3)c2N)cc1OCC	-5	6	15	-4	0	0.69	2.7	1.1	i
CCOc1ccc(-c2nnc3sc(-c4ccccc4OC)nn23)cc1	nt	nt	nt	-5	nt	0.72	8.9	-1.9	nt
